# Compound activity from PubChem BioAssay.
# miR-21 FLuc: miR-21 reporter, rising signal | AID 2288 | 340,000 tested, under 10 active | HeLa miR-21 FLuc reporter, luciferase, 48 h | Potency, µM (highest dose often 38.3 µM), for inactives: top-dose reporter change, positive = more light; active = well fitted rising curve with a large enough effect; inconclusive = small, poorly fitted or top-dose-only effect; inactive = no such curve, though single readings can be large or run the other way;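 note: % of control where 0% means no effect; miR-21 action dims this reporter so a rising signal means less miR-21 action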
#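 Compounds were titrated across several concentrations (up to approximately 40 uM) and incubated 48 hours with HeLa miR-21-FLuc reporter cells (miR-21 target sequence downstream of FLuc, endogenous miR-21). Readout was firefly luciferase luminescence after lytic detection reagent.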
# GLA inh pH 4.5: blocks human alpha-galactosidase A at pH 4.5 | P06280 | purified enzyme, 4-MU-alpha-Gal fluorescence, pH 4.5 | activity change, negative = inhibition, % at 105 µM | 230,000 tested, under 10 active; inconclusive = small, poorly fitted or top-dose-only inhibition, or a rising curve; inactive = flat fitted curve, though single readings scatter; no compound was filed as active;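 note: 0% = full activity with enzyme and -100% = basal without enzyme; dose as in the result columns while the protocol names 77 µM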
# Target sequence (P06280 whole entry, looked up): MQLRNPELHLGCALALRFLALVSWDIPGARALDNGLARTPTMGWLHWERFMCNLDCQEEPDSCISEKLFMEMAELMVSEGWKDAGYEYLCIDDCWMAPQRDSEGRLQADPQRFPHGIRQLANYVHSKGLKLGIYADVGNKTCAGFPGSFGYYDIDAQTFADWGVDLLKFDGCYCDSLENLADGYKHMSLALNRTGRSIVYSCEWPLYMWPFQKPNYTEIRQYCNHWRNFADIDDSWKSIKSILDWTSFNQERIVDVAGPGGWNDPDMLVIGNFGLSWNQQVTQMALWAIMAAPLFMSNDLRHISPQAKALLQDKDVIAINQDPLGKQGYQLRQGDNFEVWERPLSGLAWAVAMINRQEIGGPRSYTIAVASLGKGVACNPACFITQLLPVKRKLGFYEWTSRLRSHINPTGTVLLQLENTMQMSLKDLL
# Rango dissoc inh: prevents RanGTP from dissociating the Rango-importin beta complex; Biochemical FRET Rango-importin beta, RanGTP-induced dissociation; Potency, µM (highest dose often 46.1 µM), inactives show at the highest dose activity change, negative = inhibition; 340,000 tested, 0.071% active; active means falling FRET ratio curve, often poorly fitted, with flat reads before Ran was added; inconclusive means other falling curves, or compound fluorescence or quenching; inactive means flat or rising ratio curve;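 note: potency is the fitted concentration of half-maximal effect; % of control where 0% means no effect; nearly all actives have a fitted effect of over 45% in size; -100% = wells without RanGTP and RCC1; the record marks most hits as doubtful in a second field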
#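 Rango (0.1 uM)–importin beta (0.25 uM) complex; RanGTP-RCC1 trigger; 45 min RT; CFP/YFP FRET read.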
# Rango-impB inh: inhibitors of Rango-importin beta complex formation; Q14974; Rango CFP/YFP FRET sensor + importin beta, 45 min; Potency, µM (top dose mostly 92.2 µM), without a hit: top-dose inhibition of complex formation; 340,000 tested, 0.031% active; AID 540263; active = rising FRET ratio curve, often small or poorly fitted; inconclusive = mostly compound fluorescence or quenching in the first reads; inactive = flat curves in all reads;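 note: potency is the fitted concentration of half-maximal effect; 0% = DMSO wells and 100% = buffer wells lacking importin beta; nearly all actives have a fitted effect of over 15% in size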
#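 FRET biosensor Rango (snurportin 1 IBB between N-terminal EYFP and C-terminal Cerulean), 50 nM in PBS/1 mM DTT/0.02% Tween-20/0.1% BSA, preincubated 5 min RT with compound; 0.125 microM importin beta added, 45 min RT, CFP/YFP FRET ratio read.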
# Starred values were filed as active, the others as inactive; ? = inconclusive; · = not tested or not shown; [ ] = dose if it differs, or a comment. Not all compounds are listed; the hit share may differ from the screen's.
miR-21 FLuc | GLA inh pH 4.5 | Rango dissoc inh | Rango-impB inh | compound
0% | · | -8% | 0.9% | CCCC(=O)N(Cc1cccnc1)c1nc2c(OC)ccc(Cl)c2s1
6% | -3 | 9% | -1.4% | CC(=O)c1ccccc1OCCOCCOc1ccccc1C(C)=O
3% | · | 8% | -2.9% | COc1ccc(NC(=O)CN(C)S(=O)(=O)c2ccc3c(c2)CC(C)N3C(C)=O)cc1OC (stereo unspecified)
-10% | 1 | -9% | -0.4% | CC(NC(=O)C1(S(=O)(=O)c2ccc(Cl)cc2)CC1)c1ccccc1 (stereo unspecified)
-1% | · | 3% | 0.7% | O=C(NC1CCN(Cc2ccccc2)CC1)c1ccc(Cl)cc1Cl
-13% | 3[21.1 µM] | 1% | -0.3% | Cc1ccn2c(NC3CCCC3)c(-c3ccncc3)nc2c1
-4% | 3 | 17% | 1.8% | COCCn1c(SCC(=O)Nc2cc(C(C)(C)C)nn2-c2ccccc2)nnc1-c1ccncc1
-49% | -2 | 8% | 0.1% | Cc1ccc(S(=O)(=O)/N=C(/Nc2ccccn2)c2ccc(Cl)cc2)cc1
24% | -10 | -14% | ? | Cc1nc(C)c(C(=O)Nc2ncc([N+](=O)[O-])s2)o1
-6% | 1 | ? | ? | N#CC1=C(N)SC(N)=C(C#N)C1c1c(Cl)cccc1Cl
· | · | 1% | -1.2% | COCc1cccc(C2=CC(=O)C[C@H](c3ccc(F)cc3)C2)c1
· | · | 13% | -0.1% | COc1ccc(CCNC(=O)Cc2cc3c(cc2[N+](=O)[O-])OCO3)cc1OC
9% | 2 | 0% | 0.6% | O=C(CSc1nnnn1-c1ccc(F)cc1)Nc1ccc(N2CCOCC2)c(Cl)c1
· | · | -8% | -2.0% | Cc1ccc(C(=O)N(C)Cc2nc3ccccc3c(=O)[nH]2)cc1NC(=O)c1ccco1
-28% | · | -9% | 2.1% | CC(C(=O)O/N=C(\N)c1ccccn1)c1ccc([N+](=O)[O-])cc1 (stereo unspecified)
-20% | -1 | 0% | -0.8% | CN(C(=O)CSc1nnc(-c2ccco2)o1)C1CCCCC1
-2% | -8 | 26% | 3.1% | CC(=O)c1ccc(OCc2ccc(Oc3c(Cl)cccc3[N+](=O)[O-])cc2)cc1
2% | · | -6% | -2.5% | Cc1cc(C)c(N(CC(=O)NCc2ccccc2)C(=O)c2csnn2)c(C)c1
-11% | 2 | -14% | 0.9% | O=C(CSc1nnc(-c2ccccc2)o1)c1ccc2c(c1)OCCO2
· | · | 6% | ? | O=C(NCC1COc2ccccc2O1)c1cccc(S(=O)(=O)NCc2ccccc2)c1 (stereo unspecified)
0% | -7 | · | · | CCN1C(=O)/C(=C2\SC(=S)N(CC3CCCO3)C2=O)c2ccccc21 (stereo unspecified)
25% | -3 | -5% | -0.3% | O=c1cnnc(N/N=C/c2ccccn2)[nH]1
-15% | 1 | 5% | 0.8% | c1ccc2c(c1)Sc1ccccc1-n1cnnc1-2
-1% | · | 3% | -1.0% | Cc1ccc(C(=O)COC(=O)CN2C(=O)C3C4C=CC(C4)C3C2=O)cc1[N+](=O)[O-] (stereo unspecified)
· | · | 25% | -2.7% | O=C(O)Cn1cnc2c(OCc3ccccc3)ncnc21
· | · | 0% | -0.9% | CC1CCCC(C)N1C(=O)CN1C(=O)NC2(CCOc3ccccc32)C1=O (stereo unspecified)
-11% | -1 | -2% | 1.0% | NC(=O)C1CCN(C(=O)COc2ccc(Nc3ccccc3)cc2)CC1
11% | -19 | -22% | 4.5% | COc1ccc(S(=O)(=O)N(C)CC(=O)Nc2ccccc2SC)cc1
18% | -1 | 11% | -2.2% | O=C(c1ccco1)N1c2ccccc2Sc2ccccc21
-6% | 3 | 9% | 3.4% | Cc1ccsc1/C=N/n1c(C2CCCCC2)n[nH]c1=S
· | · | 30% | -0.4% | O=C(CSc1nnc2ccccn12)Nc1ccc(N2CCOCC2)cc1
· | · | 12% | -0.1% | C(#Cc1ccc2c(c1)COc1c3ccccc3nn1-2)c1ccccc1
-4% | · | 2% | -2.4% | O=C(CN1CCN(c2ccc([N+](=O)[O-])cc2)CC1)c1ccccc1
-21% | · | -4% | -1.2% | COCC1CCCN(C(=O)c2cc(COc3cncc(Cl)c3)on2)C1 (stereo unspecified)
0% | · | 6% | -3.8% | COc1ccc(NC(=O)c2ccco2)cc1NC(=O)COc1ccccc1[N+](=O)[O-]
· | · | ? | ? | COc1ccc(CNC(=O)COC(=O)C2=Cc3ccccc3OC2)cc1
0% | -1 | 3% | -1.3% | Nc1nnn(CC(=O)N/N=C/c2cccc(Cl)c2)n1
-66% | -27 | ? | -3.6% | O=[N+]([O-])c1cccnc1NCCNc1ncc(C(F)(F)F)cc1Cl
-43% | · | -8% | -1.7% | COc1cc(CN2CCC(C(=O)NCCC(C)C)CC2)ccc1OCc1ccccc1
-5% | -5 | -10% | -0.9% | Cc1nc(-c2ccccc2)sc1C1(C)CC(c2ccc(OC(F)(F)F)cc2)=NO1 (stereo unspecified)
10% | · | 2% | 3.9% | O=C(CBr)c1ccc([N+](=O)[O-])c(CS(=O)(=O)c2ccc(Cl)cc2)c1
-6% | · | 15% | 0.1% | Cc1cc(C(=O)Nc2ccccc2C)c2ccccc2n1
-1% | -8 | 21% | 3.4% | C/C(=N\Nc1ccc(S(=O)(=O)Nc2ccc(Cl)cc2)cc1[N+](=O)[O-])c1ccc(N2CCOCC2)cc1
-8% | · | ? | ? | O=C1CCN(CCc2ccccc2)CCN1[C@H](CSc1ccccc1)c1ccccc1
0% | · | -13% | -2.4% | COC(=O)c1ccc(CN2CCCC(C(=O)c3ccccc3OC)C2)cc1 (stereo unspecified)
-2% | 11 | 0% | -0.5% | Cc1noc(C)c1S(=O)(=O)Nc1ccc(C(=O)NC2CCCCC2)cc1
-20% | 6 | -6% | -2.4% | Cc1ccc(-c2[nH]n3c(=O)c4c(nc3c2C)CCCC4)cc1
· | · | ? | 2.7% | CCCCc1nnc(NC(=O)c2ccc(N3CCCC3=O)cc2)s1
-36% | 5 | 11% | -2.7% | CCOCc1nnc(NC(=O)c2ccc(OC)cc2)s1
· | · | 1% | ? | COc1ccc(C2=Nc3ccccc3C2(O)CCN2C(=O)c3ccccc3C2=O)cc1 (stereo unspecified)
-38% | -9 | -3% | 2.3% | Cn1c(NC(=O)/C=C\c2ccccc2)cc(=O)n(C)c1=O
0% | 7 | -15% | -0.9% | O=c1c2cccnc2nc2n1CCCCC2
· | · | -18% | 4.9% | CC1(C)O[C@@H]2C[C@H]3[C@@H]4C[C@H](F)C5=CC(=O)C=C[C@]5(C)[C@H]4[C@@H](O)C[C@]3(C)[C@]2(C(=O)CO)O1
1% | · | 11% | -1.7% | COc1ccccc1NC(=O)CSc1nnc(CNC(=O)c2ccccc2F)o1
-9% | -3 | -14% | 2.3% | CC(C)Nc1nc(NC(C)C)nc(N(C)C#N)n1
-8% | -3 | -4% | 1.9% | Cc1ccc(C(=O)COC(=O)c2ccccc2NC(=O)c2ccccc2)cc1[N+](=O)[O-]
-6% | -4 | 1% | -1.0% | Cc1ccc2oc(=O)n(CC(=O)OC(C)C)c2c1
-40% | 6 | ? | ? | Cc1cc(C)c(C#N)c(SCC(=O)C2CC2)n1
· | · | 2% | 0.9% | COc1cccc(CC(=O)OCC(=O)c2cc(OC)ccc2OC)c1
-17% | -7 | 0% | 3.2% | Clc1ccccc1COc1ccccc1-c1nnco1

# Compound profiles, as listed above. Screens in order: miR-21 FLuc | GLA inh pH 4.5 | Rango dissoc inh | Rango-impB inh
# COCc1cccc(C2=CC(=O)C[C@H](c3ccc(F)cc3)C2)c1 is listed as · | · | 1% | -1.2%
# O=C1CCN(CCc2ccccc2)CCN1[C@H](CSc1ccccc1)c1ccccc1 is listed as -8% | · | ? | ?
# O=C(c1ccco1)N1c2ccccc2Sc2ccccc21 is listed as 18% | -1 | 11% | -2.2%
# Cc1ccc(-c2[nH]n3c(=O)c4c(nc3c2C)CCCC4)cc1 is listed as -20% | 6 | -6% | -2.4%
# O=C(CBr)c1ccc([N+](=O)[O-])c(CS(=O)(=O)c2ccc(Cl)cc2)c1 is listed as 10% | · | 2% | 3.9%

# New compounds follow
miR-21 FLuc | GLA inh pH 4.5 | Rango dissoc inh | Rango-impB inh | compound
1% | 2 | 2% | -0.6% | O=C(CN1CCN(c2ccccc2O)CC1)NNC(=O)c1ccc(Cl)cc1
-4% | -8 | 5% | -2.4% | CSc1ccc(NC(=O)N2CCN(c3nc4ccccc4s3)CC2)cc1
1% | 5 | -6% | 0.7% | O=C(NCC(O)CN1CCOCC1)c1ccc([N+](=O)[O-])cc1 (stereo unspecified)
3% | -16[21.1 µM] | -9% | 0.3% | CCOC(=O)Cc1ccc(NCc2ccc(Cl)cc2)cc1
19% | 0 | -16% | -3.1% | COc1cccc(N2CC(O)Cn3c2nc2c3c(=O)n(CCCc3ccccc3)c(=O)n2C)c1 (stereo unspecified)
-37% | 2 | 3% | 4.3% | CCOC(=O)CN1CC23C=CC(O2)C(C(=O)Nc2ccc4c(c2)OCO4)C3C1=O (stereo unspecified)
-74% | · | -1% | 7.3% | Cc1ccc2oc(C(=O)N3CCCCCC3)c(C)c2c1
-2% | -9 | -3% | ? | CCCCOc1ccc(C(=O)N/C(=C\c2ccc([N+](=O)[O-])cc2)C(=O)OCc2ccco2)cc1
-3% | 3 | 1% | -1.8% | N#CCCNC(=O)CCN1CCCCC1
11% | · | 0% | -1.4% | Cc1ccc(NC(=O)c2cc(S(=O)(=O)N3CCc4ccccc43)cn2C)cc1C
7% | -9 | 1% | -3.2% | COc1ccccc1NC(=O)CN(c1ccc(C)cc1)S(=O)(=O)c1c(C)n[nH]c1C
-4% | 3 | -8% | -1.9% | O=C(N1CCOCC1)C(F)(F)C(=O)N1CCOCC1
-17% | 6 | 14% | 0.6% | Cc1cc(N2CCC(C(N)=O)CC2)nc(-c2ccccc2)n1
· | · | -7% | 1.4% | CCOc1ccc(CCNC(=O)Cc2ccc(S(=O)(=O)N3CCOCC3)s2)cc1OCC
-8% | 4 | -10% | -2.9% | N#Cc1c(SCC(N)=O)nsc1SCc1ccccc1Cl
· | · | 1% | 4.8% | Cc1ccc(S(=O)(=O)N2CCC(C(=O)OC(C)C(=O)NC3CCCCC3C)CC2)cc1C (stereo unspecified)
· | · | 4% | 1.5% | CC(=C1SC(=S)NC1=O)c1ccccc1
3% | -4 | -2% | 5.4% | C=CCn1c(SCC(=O)N2CCOCC2)nc2sc3c(c2c1=O)CCCC3
-2% | -7 | 1% | -4.6% | CC(=O)C1C(c2ccccc2Cl)NC(=O)NC1(O)C(F)(F)F (stereo unspecified)
-18% | -1 | 2% | -4.7% | Cc1ccc(C(=O)N/C(=C/c2ccccc2)C(=O)NC(Cc2ccccc2)C(=O)O)cc1 (stereo unspecified)
-4% | 2 | -14% | -1.4% | COc1cccc2cc(C(=O)C3=C(O)C(=O)N(CCN(C)C)C3c3ccc(F)cc3)oc12 (stereo unspecified)
9% | · | -18% | -5.3% | COc1ccccc1CNC(=O)c1ccc2c(=O)n3c(nc2c1)CCCCC3
-2% | -29 | -10% | 3.3% | O=c1[nH]c2ccc(S(=O)(=O)N3CCN(c4ccccc4)CC3)cc2[nH]c1=O
1% | -6 | -12% | -0.8% | Cc1c(Cl)cccc1-n1c(SCC(=O)NCc2ccccc2Cl)nnc1-c1ccncc1
1% | -2 | 16% | -2.0% | CCCC(=O)NC(Nc1c(C)n(C)n(-c2ccccc2)c1=O)C(Cl)(Cl)Cl (stereo unspecified)
· | · | 2% | -0.8% | COc1c(C(=O)Nc2ccccc2N2CCOCC2)cc2ccccc2c1Br
· | -7 | 9% | 2.3% | CC[C@H]1C(O)C[C@H]2CCN3C(=O)CCC[C@H]1[C@H]23 (stereo partly specified)
-53% | -5 | -11% | 0.2% | CC(C)(CO)NC(=O)CCCOc1ccc(Cl)cc1Cl
-4% | -11 | 14% | -3.8% | O=C(OCc1cn(-c2ccc(Cl)c(Cl)c2)nn1)c1ccccc1
-5% | · | 13% | 1.1% | O=c1[nH]c(=O)n(C2OC(CO)C(O)C2O)cc1Br (stereo unspecified)
